# Bioassay records (PubChem BioAssay)
# Vaccinia Venus: vaccinia inhibition (Venus reporter); Vaccinia virus Venus reporter expression, fluorescence; Potency, µM (titrated, usually from 36.5 µM), for inactives: at the top dose activity change, negative = inhibition, hits mostly inhibitors; actives 0.46% (n = 330,000); active means well fitted inhibition curve with a large enough effect; inconclusive means small, poorly fitted or top-dose-only effect; inactive means no such curve, though single readings can be large or run the other way; tested in A549 cells; further: nearly all actives have a fitted effect of over 30% in size; inactives centre near -10
# Vaccinia mCherry: vaccinia inhibition (mCherry reporter); actives 0.63% (n = 310,000); Potency, µM (doses to about 36.5 µM), without a hit: at the highest dose activity change, negative = inhibition, most hits filed as inhibitors; Vaccinia virus mCherry reporter infection, fluorescence; about a quarter of the inactives have no number; active = well fitted inhibition curve with a large enough effect; inconclusive = small, poorly fitted or top-dose-only effect; inactive = no such curve, though single readings can be large or run the other way; tested in A549 cells; further: nearly all actives have a fitted effect of over 35% in size; inactives centre near -10
# * hit, by the source's call; i = inactive; ? = inconclusive; / = no result given; [ ] = dose if it differs, or a comment. On the % scale 0 is the no-effect control and ±100 the full control effect; potency means the concentration at half of the fitted maximal effect. An unsorted share of the library; overall some 0.87% were active at least once.
# The first 3 records, to show the layout:
Compound,Vaccinia Venus,Vaccinia mCherry
NS(=O)(=O)c1ccc(CCNC(=O)CN2CCN(c3ccc(F)cc3)CC2)cc1,-11.2%,i
CCCCn1c(N)c(N(CC(C)C)C(=O)C2CC(=O)N(c3ccc4c(c3)OCCO4)C2)c(=O)[nH]c1=O (configuration not stated),-20.0%,-7.7%
CN(C)CCCNCCNC(=O)/C=N\O,-2.4%,-1.0%

# The whole of this part, previewed entries included:
Compound,Vaccinia Venus,Vaccinia mCherry
NS(=O)(=O)c1ccc(CCNC(=O)CN2CCN(c3ccc(F)cc3)CC2)cc1,-11.2%,i
CCCCn1c(N)c(N(CC(C)C)C(=O)C2CC(=O)N(c3ccc4c(c3)OCCO4)C2)c(=O)[nH]c1=O (configuration not stated),-20.0%,-7.7%
CN(C)CCCNCCNC(=O)/C=N\O,-2.4%,-1.0%
COc1ccc(C(=O)N2CCCC(CCC(=O)NCc3ccccc3F)C2)c(OC)n1 (configuration not stated),-9.1%,-10.0%
CCN(C(=O)CCc1nc(-c2ccc(OC)cc2)no1)c1cc(OC)ccc1OC,?,/
Cc1c(C(O)CN2CCN(Cc3ccc4c(c3)OCO4)CC2)c2ccccc2n1C (configuration not stated),-5.1%,-21.1%
O=C(COc1cccnc1[N+](=O)[O-])NCCc1ccc(Cl)cc1,-3.4%,-0.3%
c1ccc(Nc2nc(-c3ccccc3)c(-c3ccccc3)s2)cc1,-14.9%,-13.0%
CCOP(=O)(C1=C(O)C(=O)C(C(C)(C)C)=CC1=O)c1ccccc1 (configuration not stated),1.9%,5.3%
COc1ccc2nc(NC(=O)C3CCN(S(=O)(=O)c4cnc[nH]4)CC3)sc2c1,?,-9.7%
CCn1c(=N)c(C(=O)NCc2ccccc2)cc2c(=O)n3cccc(C)c3nc21,-3.0%,-11.3%
Cc1cccc(N(C(=O)c2nsc(Cl)c2Cl)C(C(=O)NC2CCCC2)c2ccc(O)cc2)c1 (configuration not stated),-3.8%,-18.5%
CCOc1nc(NC(=O)NS(=O)(=O)Oc2cccc(F)c2)nc(-c2ccccc2)n1,4.4%,-8.2%
COc1ccc(NC(=O)C2CCN(c3nc(-c4ccc(OC)cc4)no3)CC2)cc1,-10.2%,-7.8%
O=C(NNS(=O)(=O)c1ccc(F)cc1)c1sccc1-n1cccc1,-11.3%,-5.7%
O=C(c1ccc(Cl)c(S(=O)(=O)N2CCCCC2)c1)N1CCN(c2ccccc2)CC1,-18.9%,-8.8%
CC1CCN(c2c(NCC3CCC(C(=O)NCCc4ccc(Cl)cc4)CC3)c(=O)c2=O)CC1 (configuration not stated),-25.6%,i
COc1ccc(-c2[nH]c(-c3ccccc3)nc2SCC(=O)NCc2ccco2)cc1OC,-23.8%,i
COc1ccc(S(=O)(=O)N2c3ccccc3OCC2C)cc1 (configuration not stated),-21.9%,?
CCc1nc2c(OCc3ccccc3C)cccn2c1N(C)C(=O)c1ccco1,-12.2%,-8.9%
Cc1c(C(=O)N(C)Cc2ccc(F)cc2)sc(=O)n1Cc1ccccc1C#N,1.1%,0.8%
COc1ccc(Cl)cc1NC(=O)Cn1c2ncccc2c(=O)n1-c1ccc(C)c(C)c1,-16.6%[7.34 µM],-12.7%[7.34 µM]
COC(=O)c1cccc(NC(=O)c2ccc(S(=O)(=O)N(C)c3ccccc3OC)cc2)c1,-27.0%,-12.9%
Cc1ccc(CCN2CC(C(=O)NCCCN3CCOCC3)CC2=O)cc1 (configuration not stated),-16.4%,-27.5%
Cn1cc(C(=O)OCC(=O)NC2CCCC2)c2ccccc21,2.2%,3.8%
CCOC(=O)c1ccccc1NC(=O)COC(=O)c1ccc(OCC(=O)N2CCOCC2)c(OCC)c1,-7.1%,-13.5%
COC(=O)C1=C(C)N(CC2CC2)C(=O)N[C@H]1c1ccccc1,-16.3%,i
Oc1ccc(CC2CC3CCN2CC3)cc1O (configuration not stated),-15.3%,/
Cc1cc(/C=C2\NC(=S)N(C)C2=O)ccc1N1CCCC1,92.2%[activator],-21.8%
CCOc1ccccc1C(=O)N1CCC(n2nnc3cc(C)ccc32)CC1,-9.1%,-4.3%
Cc1ccccc1NC(=O)COC(=O)c1ccc(S(C)(=O)=O)c([N+](=O)[O-])c1,-26.4%,-0.5%
COCC(=O)N(C)c1nnc(-c2ccc([N+](=O)[O-])cc2)s1,-3.2%,-7.0%

# Single records, from the list above. Order of values: Vaccinia Venus | Vaccinia mCherry
# `COC(=O)C1=C(C)N(CC2CC2)C(=O)N[C@H]1c1ccccc1` in the list: -16.3% | i
# `Cc1cc(/C=C2\NC(=S)N(C)C2=O)ccc1N1CCCC1` in the list: 92.2%[activator] | -21.8%
# `Cn1cc(C(=O)OCC(=O)NC2CCCC2)c2ccccc21` in the list: 2.2% | 3.8%
# `Cc1ccccc1NC(=O)COC(=O)c1ccc(S(C)(=O)=O)c([N+](=O)[O-])c1` in the list: -26.4% | -0.5%

# Additional results follow:
Compound,Vaccinia Venus,Vaccinia mCherry
CCOc1ccc(CCNC(=O)c2nnn(CC(=O)Nc3ccc(OC)c(OC)c3)c2N)cc1OCC,-17.8%,-26.6%
CCn1ncc(C2=NOC(C(=O)Nc3c(C)n(C)n(-c4ccccc4)c3=O)C2)c1C (configuration not stated),3.1%,12.7%
CCCC(=O)Nc1nc(-c2ccc3c(c2)OCCO3)cs1,-14.5%,i
CCOc1ccccc1CNC(=O)c1ccc2nc(Cc3ccc(OC)cc3)oc2c1,-6.6%,-10.2%
CCC/C=C/c1ccc(CN2C(CC(C)C)C(=O)N(Cc3cn(CC4CCCCC4)nn3)CCS2(=O)=O)cc1 (configuration not stated),-29.9%,-7.5%
CC1=C(c2ccccc2)C(=S)NC(C)(C)C1,-28.1%,i
CCc1nc2ccccc2c(C(=O)OC2CCCCC2=O)c1C (configuration not stated),-12.6%,-3.7%
OC(c1ccc(Cl)c(Cl)c1)c1ncc(-c2ccccc2C(F)(F)F)[nH]1 (configuration not stated),-1.9%,0.4%
NNC(=O)c1cc(NS(=O)(=O)c2cccs2)cc(NS(=O)(=O)c2cccs2)c1,2.9%,-13.6%
COc1ccc(C)cc1NC(=O)Nc1cc(C(=O)NCc2ccc(C)cc2)ccc1N1CCCC1,-21.7%,-25.3%
CCOc1ccc(Nc2nc(C)c(NC(=O)c3cccc(OC)c3)c(Nc3ccc(OCC)cc3)n2)cc1,-15.7%,i
CCc1ccccc1NC(=O)C(=O)NCCc1sc(-c2cccc(F)c2)nc1C,-5.9%,-20.2%
CS(=O)(=O)N1CCCC(C(=O)Nc2ccccc2)C1 (configuration not stated),-18.3%,-13.8%
CC(CC(=O)C1C(C)C=CCC1(C)C)NNC(N)=O (configuration not stated),-4.7%,-6.3%
Cc1ccc(NC(=O)C(c2ccccc2)N2Cc3ccccc3C2=O)cc1Cl (configuration not stated),-11.0%,-0.6%
COc1ccccc1N1C(=O)CC(Sc2ncccc2C(=O)O)C1=O (configuration not stated),-2.3%,/
O=C(CSc1nnnn1-c1ccccc1)Nc1ccc(N2CCOCC2)cc1,-10.5%,-11.5%
O=C(c1ccc(Cl)c(Cl)c1)N1CCC(=O)N(C(COCc2ccccc2)Cc2ccccc2)CC1 (configuration not stated),?,-2.6%
CCC(C)(C)NC(=O)C(c1ccc(OC)cc1)N(Cc1ccco1)C(=O)CCC(=O)Nc1cc(C)on1 (configuration not stated),-1.7%,-2.6%
O=C(NNS(=O)(=O)c1cccc(Cl)c1Cl)c1cccc(S(=O)(=O)N2CCOCC2)c1,-8.5%,-13.2%
COC(=O)[C@]1(Cc2ccccc2)N[C@H](CN(C)C(=O)NC(C)C)[C@@H]2C(=O)N(C)C(=O)[C@@H]21,8.5%,-15.1%
CCCCCC(=O)N1C[C@H](O)[C@@H](n2cc(-c3ccc(F)cc3)nn2)C[C@@H]1c1ccc(Cl)cc1,?,-1.0%
COc1ccc(NC(=O)c2cc(S(=O)(=O)N3CCCCCC3)cn2C)cc1Cl,0.7%,-4.4%
CCNC(=S)NCc1ccco1,-11.3%,i
CC(=O)N1CCN(C2c3cccc4cccc(c34)C2NS(=O)(=O)c2ccccc2)CC1 (configuration not stated),-13.9%,/
CCOC(=O)C1=C(CS(=O)(=O)c2ccccc2)NC(=O)NC1c1ccccc1OC (configuration not stated),-5.3%,i
CN(C(=O)c1cccc(NC(=O)Cc2ccc(NC(=O)C3CCN(C(=O)c4ccccc4)CC3)cc2)c1)C1CC1,6.0%,-10.7%
CCCCn1c(N)c(N(CC(C)C)C(=O)C2CCN(S(=O)(=O)c3ccc(C)cc3)CC2)c(=O)[nH]c1=O,-9.6%,i
O=C(CCNC(=O)c1ccccc1Cl)NCc1cccnc1,-10.3%,-0.1%
C=CCn1c(Cc2ccccc2)n[nH]c1=S,-7.3%,i
O=C(O)CCCC(=O)Nc1ccc(Sc2ccc([N+](=O)[O-])cc2)cc1,-13.7%,-23.5%
Cc1cccc(N2CCN(C(=O)NCc3ccc(F)cc3)CC2)c1C,-9.0%,i
COc1ccc(NC(=O)c2ccc3ccccc3c2OC)cc1,-20.1%,?
O=C(NCc1ccccn1)C1CC(c2ccccc2Cl)=NO1 (configuration not stated),-11.5%,-8.5%
NC(=O)c1ncn([C@@H]2O[C@H](CO)[C@@H](O)[C@H]2O)c1O,-15.2%,-14.3%
Cc1cc(C)c(NC(=O)CSc2nc(-c3ccc(F)cc3)nc3c2Cc2c(CO)cnc(C)c2O3)c(C)c1,-4.4%,3.9%
O=C(Nc1ccc2nc3ccccc3nc2c1)c1ccc(Br)cc1,-10.8%,i
CC(C)CCN1CCC(C)(NC(=O)c2ccccc2)C1=O (configuration not stated),-12.9%,i
COc1ccc(OC)c(NC(=O)c2sc3nc4c(cc3c2N)CCCCCC4)c1,-9.1%,-23.8%
O=C(CSC1=Nc2ccccc2N=C(c2ccc(F)cc2)C1)Nc1ccc(Cl)cc1,-8.3%,-16.1%
COCc1c(C(=O)NC2CCCC2)cnn1-c1nccc(-c2cc(C)sc2C)n1,-6.2%,-11.3%
CCN(c1ccccc1)c1ccc2cc(S(=O)(=O)N3CCCC3)ccc2n1,-3.4%,-1.6%
COC(=O)C1=C(c2c(C)noc2C)C[C@@H]2CC[C@H]1N2C(=O)NCC1CC1,-16.0%,i
Oc1ccc(-c2nc3ccccc3nc2-c2ccc(O)cc2O)c(O)c1,-21.1%,-23.4%
Cc1cc(Cl)ccc1OC(C)C(=O)Nc1ccc([N+](=O)[O-])cn1 (configuration not stated),-14.8%,-3.8%
O=C(NC(=S)NCc1ccc(Cl)cc1Cl)c1ccco1,-8.7%,i
O=C(CN(C1CC1)S(=O)(=O)c1ccc(S(=O)(=O)NC2CCCCC2)cc1)Nc1ccccc1,?,?
COc1ccc(NC(=O)CCN2CCCCC2)cc1,-7.6%,-16.5%
Cc1ccc(CNc2ncnc(N)c2[N+](=O)[O-])cc1,-10.8%,-24.2%
CC(C)CN(CC(C)C)S(=O)(=O)c1ccc(C(=O)Nc2sc3c(c2C(N)=O)CCN(C(C)C)C3)cc1,?,?
CCOc1ccccc1CNC(=O)c1cnn(-c2ccc(C)cc2)c1-n1cccc1,-13.8%,-22.2%
N#C/C(=C\c1ccccc1)C(=O)NCc1ccc(F)cc1,-7.1%,?
COc1cc(NC(=O)c2sc3nc4n(c(=O)c3c2C)CCCCC4)cc(OC)c1OC,-4.4%,-14.0%
O=C(CSCc1ccc(Cl)cc1)NCCSCc1ccco1,2.7%,i
CC(C)(C)NC(=O)NC(=O)CN1CC=C(c2ccccc2)CC1,-26.4%,?
CN(C)c1ccc(CNC(=O)C2COc3ccccc3C2)cc1 (configuration not stated),3.9%,3.2%

# Next structures follow:
Compound,Vaccinia Venus,Vaccinia mCherry
COc1ccc(OC)c(N(CC(=O)NCc2cccnc2)S(C)(=O)=O)c1,-3.4%,-15.5%
CCOC(=O)c1cc(-c2ccc(OC)cc2F)nc2c1c(C)nn2CCC#N,-15.0%,-22.2%
COc1ccc(C(CNC(=O)c2sccc2C)N2CCOCC2)cc1 (configuration not stated),-1.9%,-7.3%
CCc1ccc2oc(-c3cc(NC(=O)COc4ccc(C)cc4)ccc3O)nc2c1,?,-16.6%
CC(=O)N1CC2(c3ccccc3)CN(C(C)=O)CC(c3ccccc3)(C1)C2=O,-12.7%,-2.2%
CNC(=O)COC(=O)c1nc(-n2nc(C)cc2C)ccc1Cl,-13.1%,-11.4%
Cc1ccc(C(C(=O)NCc2ccccc2)N(C(=O)c2ccccn2)c2ccccc2)o1 (configuration not stated),-5.5%,?
Cc1ccc(S(=O)(=O)N2C[C@@H](C)[C@]3(C2)[C@H](O)[C@H](OC(=O)NC2CCCC2)C[C@H]2C(=O)N(c4ccccc4)C(=O)[C@H]23)cc1,-20.4%,-0.4%
COC(=O)c1c(S(=O)(=O)NCc2ccccc2)sc(C(=O)O)c1C,-13.1%,-15.6%
CCOc1ccccc1NC(=O)Cn1ncc2ccc([N+](=O)[O-])cc21,-3.9%,-7.0%
O=C(CN1C(=O)NC2(CCCC2)C1=O)Nc1cc(C(F)(F)F)ccc1N1CCOCC1,-25.6%,-17.2%
Cc1cccc(NC(=O)C2CCCN(S(=O)(=O)c3ccc4c(c3)CCCC(=O)N4)C2)c1 (configuration not stated),2.5%,-2.5%
